High-throughput results: PubChem BioAssay, National Center for Advancing Translational Sciences (NCATS)
Methyltransferases – Primary Screen for Target Class Profiling of Small Molecule Inhibitors of Methyltransferases | AID 1745853, 2022 | purified enzyme, MTase-Glo SAH luminescence; stronger effect = lower value | 25,000 compounds, 3.9% hits | calls only at 40 µM; active = -50% or lower on at least one of six enzymes; inconclusive = the cases between; inactive = as a rule above -30% on all six;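 note: enzymes were COMT GAMT GNMT HNMT NNMT and PNMT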
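Each enzyme was reacted with SAM and its substrate, with compounds tested once at 40 uM; SAH formed was read by MTase-Glo luminescence.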
Calls only; i = inactive; ? = inconclusive; + = active, no number. % is set by controls: 0 for no effect and ±100 for the full control effect. The list is partial; count on the stated rates, not on these rows.

SMILES	Methyltransferases
CCOC(=O)c1cc2n(n1)CC(C)(C(=O)NC1CCCCCC1)N(Cc1ccc(CC)cc1)C2=O (centres undefined)	i
O=C(O)[C@H]1C[C@@H](C(=O)NCc2cccnc2)CN(Cc2ccccn2)C1	i
CCCn1c(=O)c2ccc(Cl)cc2n2c(=O)n(CC(=O)c3ccccc3)nc12	i
C/C=C(\C)C(=O)OC[C@H]1O[C@H](O[C@H]2O[C@H](CO)[C@@H](OC(=O)/C(C)=C/C)[C@H](O)[C@H]2O[C@@H]2O[C@H](CO)[C@@H](O)[C@H](O)[C@H]2O)[C@H](O[C@@H]2O[C@H](CO)[C@@H](O)[C@H](O)[C@H]2O)[C@@H](O)[C@@H]1O	i
CN1CC[C@H]2CN(C(=O)c3ccccc3-n3cccn3)C[C@@]2(C(=O)O)C1	i
CC(C)(C)[C@H](NC(=O)c1ccc(N)c(Cl)c1)C(=O)N1CCC[C@H]1C(=O)N[C@H](C#N)CC(=O)O	i
CCCOc1ccc(CCc2nc3cc(-c4c(C)noc4C)ccc3n2CCN2CCOCC2)cc1	?
COc1cccc(CNC(=O)[C@@]23CCCC[C@H]2N(CCc2ccccc2)C(=O)CC3)c1	i
COc1ccc(CNC(=O)Cn2ccc3cc(S(=O)(=O)N4CCCC4)ccc32)c(OC)c1	i
COc1cccc(CNC(=O)c2cc3n(n2)CC(C)(C(=O)NCc2ccc(F)cc2)N(C)C3=O)c1OC (centres undefined)	i
CC(C)Cn1c(=O)c2ccc(C(=O)NC3CCCCC3)cc2n2c(=O)[nH]nc12	i
COCCN1C(=O)c2ccccc2C(C(=O)NCc2ccc(Cl)cc2)C12CCCC2 (centres undefined)	i
CC1(C(=O)NC2CCCCCC2)Cn2c(ccc2-c2ccco2)C(=O)N1Cc1ccc(Cl)cc1 (centres undefined)	i
COc1cncc(Nc2cnc3ccc(N(C)Cc4ccc(F)cc4)nn23)c1	?
COc1ccc2c(c1)c(NC(C)=O)c1n2CC(C)(C(=O)NC2CCCC2)N(Cc2ccco2)C1=O (centres undefined)	i
CC(C)C[C@H](NC(=O)[C@@H]1O[C@H]1C(=O)O)C(=O)NCCCCN=C(N)N	?
Cc1cc(C)cc(NC(=O)Cn2nc3n(CC(C)C)c(=O)c4ccc(C(=O)NCC(C)C)cc4n3c2=O)c1	i
CCc1cccc(NC(=O)Cn2nc3n(C(C)C)c(=O)c4ccc(C(=O)NC5CCCC5)cc4n3c2=O)c1	i
COCCCN1C(=O)c2cc3ccccc3n2CC1(C)C(=O)NC1CCCC1 (centres undefined)	i
CCCn1c(=O)c2ccc(C(=O)NC3CCCCC3)cc2n2c(=O)n(CC(N)=O)nc12	i

Three compounds out of the list, arranged by length of the SMILES, falling.
SMILES	Methyltransferases
COc1ccc2c(c1)c(NC(C)=O)c1n2CC(C)(C(=O)NC2CCCC2)N(Cc2ccco2)C1=O (centres undefined)	i
CC(C)C[C@H](NC(=O)[C@@H]1O[C@H]1C(=O)O)C(=O)NCCCCN=C(N)N	?
COc1cncc(Nc2cnc3ccc(N(C)Cc4ccc(F)cc4)nn23)c1	?

Next structures follow:
SMILES	Methyltransferases
O=S(=O)(Nc1ccccc1Cl)c1ccc2[nH]c3c(c2c1)CCCC3	i
CCCn1c(=O)c2cc(F)ccc2n2c(SCC(=O)Nc3ccc(C)cc3Cl)nnc12	i
CC(=O)N1C[C@@H](CN(C)C)[C@H](NC(=O)Cc2ccc(OC(F)(F)F)cc2)C1	i
COc1ccc2cc3n(c2c1)CC(C)(C(=O)NC1CCCC1)N(c1cccc(SC)c1)C3=O (centres undefined)	i
CCCn1c(=O)c2ccc(Cl)cc2n2c(=O)n(CC(=O)c3ccc(Br)cc3)nc12	i
Cc1ccc(-c2cn(C3CN(C(=O)C4CCC4)C3)nn2)cc1	i
C=C1C(=O)OC2CC3(C)C(CC12)C(C)=CC(O)C3OC(C)=O (centres undefined)	+
CCCn1c(=O)c2ccccc2n2c(=O)n(CC(=O)c3ccc(OC)cc3)nc12	i
OCCOCCn1cnc(-c2ccccc2)c1-c1ccccc1Cn1cccn1	i
COc1cccc(CCc2ccccc2C(=O)N2CC[C@H](CO)[C@@H](O)C2)c1	i
CNC(=O)[C@@H]1CN(C(=O)CCc2cccc(OC)c2)C[C@H]1c1n[nH]c(C)n1	i
Cc1cc(C)cc(C(=O)NOCCCCCC(=O)NO)c1	i
O=C(Cc1ccc(-n2cnnn2)cc1)N[C@@H]1COCC[C@@H]1OCc1ccccc1	i
COC(=O)c1cc2n(n1)CC(C)(C(=O)NC1CCCCC1)N(c1ccc(Cl)cc1)C2=O (centres undefined)	i
COc1ccccc1CNC(=O)C1(C)Cn2c(cc3ccccc32)C(=O)N1CCN1CCOCC1 (centres undefined)	i
CC1(C(=O)NC2CCCCCC2)Cn2c(nc3ccccc32)C(=O)N1CCN1CCOCC1 (centres undefined)	i
Cc1c[nH]c2ncnc(N3CCC(CN)(C(=O)Nc4cccc(OC(=O)N(C)C)c4)CC3)c12	+
COc1ccc(-c2cc3n(n2)CC(C)(C(=O)NCc2ccccc2)N(c2cccc(SC)c2)C3=O)cc1 (centres undefined)	i
Cc1ccc(N2C(=O)c3cc(C(C)(C)C)nn3CC2(C)C(=O)NCc2ccccc2)cc1 (centres undefined)	i
CC(C)NC(=O)c1cc2n(n1)CC(C)(C(=O)NCc1ccc(F)cc1)N(C)C2=O (centres undefined)	i
COc1ccc(CCNC(=O)c2cc3n(n2)CC(C)(C(=O)NC2CCCCC2)N(C)C3=O)c(OC)c1 (centres undefined)	i
CC1CCCC(NC(=O)C2(C)Cn3c(nc4ccccc43)C(=O)N2Cc2ccco2)C1C (centres undefined)	i
CN1C(=O)c2cc(C(=O)NCc3cccc(Br)c3)nn2CC1(C)C(=O)NC1CCCC1 (centres undefined)	i
Cn1c(=O)c2ccc(C(=O)NC3CCCCC3)cc2n2c(SCc3c(F)cccc3Cl)nnc12	i
COCCOC1CCOC2(CCN(C(=O)c3cnccn3)CC2)C1 (centres undefined)	i
Cc1nn2c(SCC(=O)Nc3cccc(Cl)c3)nnc2[nH]c1=O	i
CC(C)Cn1c(=O)c2ccc(C(=O)NC(C)C)cc2n2c(=O)n(CC(=O)c3ccccc3)nc12	i
CCOc1ccc(CNC(=O)C(C)n2ccc3cc(S(=O)(=O)N4CCCC4)ccc32)cc1OC (centres undefined)	i
C=CC(C)(C)c1[nH]c2ccccc2c1C1=C(O)C(=O)C(c2c[nH]c3c(CC=C(C)C)cccc23)=C(O)C1=O	?
CCCn1c(=O)c2ccc(C(=O)NC(C)CC)cc2n2c(=O)n(CC(=O)NC3CCCCC3)nc12 (centres undefined)	i

Reformatted with each value named: part of the list above
Cn1c(=O)c2ccc(C(=O)NC3CCCCC3)cc2n2c(SCc3c(F)cccc3Cl)nnc12
  Methyltransferases: i
COCCOC1CCOC2(CCN(C(=O)c3cnccn3)CC2)C1 (centres undefined)
  Methyltransferases: i
Cc1nn2c(SCC(=O)Nc3cccc(Cl)c3)nnc2[nH]c1=O
  Methyltransferases: i

Carrying on.
SMILES	Methyltransferases
CC(=O)N1CCCC1c1nc(C2CN(Cc3cc(F)c(F)cc3F)C2)no1 (centres undefined)	i
CC1OC2OC(=O)C3(C)CC4C5(CO5)C5=CC(=O)OC(C)(C)C5=CC(=O)C4(C)C(C1=O)C23 (centres undefined)	i
COc1cccc(CSc2nnc3n(CC(C)C)c(=O)c4ccccc4n23)c1	i
O=C(O)c1ccccc1C(=O)Nc1ccc(-c2ccccc2)cc1	i
COc1ccc(NC(=O)CCc2nnc3n(Cc4ccc(F)cc4)c(=O)c4ccccc4n23)cc1	i
O=C(c1ccsc1)N1CCc2c(nc3cc[nH]n3c2=O)C1	i
COc1ccc(-c2nc3c(c(=O)[nH]2)CCN(C(=O)CSc2ccccc2)C3)cc1	i
CCC/C=C/C=C/C1CC(O)C2(O)C(=O)OCC12 (centres undefined)	i
N[C@H]1CCCN(C(=O)c2cnc(C34CC5CC(CC(C5)C3)C4)[nH]c2=O)C1	i
Cc1nc2c(c(-c3ccc(Cl)cc3)n1)CCN(C(=O)Cc1cccc(Cl)c1)CC2	i
COCc1noc([C@@H]2CN(C(=O)C3CC=CCC3)C[C@H]2C(N)=O)n1 (some centres undefined)	i
Cc1cccc(NC(=O)Cn2c(=O)oc3cc(S(=O)(=O)N4CCCCC4)ccc32)c1	i
Cc1cnc(C)c(-c2cc(O)c3c(c2)CNCCO3)n1	i
CC1(C(=O)NC2CCCCCCC2)Cn2c(cc3sccc32)C(=O)N1Cc1cccc(Cl)c1 (centres undefined)	i
Cn1ccnc1-c1ccc(N2CC[C@@]3(O)CCN(S(C)(=O)=O)C[C@H]3C2)nn1	i
O=C1NC(=O)C(c2cn3c4c(cccc24)CCC3)C1c1c[nH]c2ccccc12 (centres undefined)	i
COCC1CN(C)CC12CCN(Cc1ccc(Br)o1)CC2 (centres undefined)	i
COc1cccc(N2C(=O)c3cc(C(C)(C)C)nn3CC2(C)C(=O)NCc2ccccc2)c1 (centres undefined)	i
CC(=O)OC[C@H]1O[C@@H](n2cnc(N)nc2=O)[C@H](OC(C)=O)[C@@H]1OC(C)=O	?
Cc1ccc(CNC(=O)c2cc3n(n2)CC(C)(C(=O)NC2CCCCCC2)N(C)C3=O)o1 (centres undefined)	i
CC(C)n1c(=O)c2ccc(C(=O)NC3CCCC3)cc2n2c(=O)n(Cc3ccc(F)cc3)nc12	i
CN1C(=O)c2ccccc2-n2c(nc3ccccc3c2=O)[C@@]12O[C@H]2c1ccccc1	i
CCN1C(=O)c2cc3ccccc3n2CC1(C)C(=O)NCC(=O)NCCCOC (centres undefined)	i
COc1c2cc(c(O)c1OC)-c1cc(ccc1O)CCC(O)CCCC2 (centres undefined)	i
Cc1nc([C@H]2CCNC[C@H]2NC(=O)C2CC2)n[nH]1	i
CCc1ccc(CNC(=O)C(C)n2ccc3cc(S(=O)(=O)N4CCCC4)ccc32)cc1 (centres undefined)	i
CCSCCNC(=O)c1c(C)noc1-c1ccc(C(C)(C)C)cc1	i
COc1cccc(-c2noc(-c3ccc(-c4cn[nH]c4)nc3)n2)c1OC	i
CCN1CCN(c2cc(-c3ccc(F)cc3)c3c(n2)CCCCCC3)CC1	i
CC(C)c1ccc(-c2cc3n(n2)CC(C)(C(=O)NC2CCCCC2)N(Cc2cccs2)C3=O)cc1 (centres undefined)	i
c1ccc(CNc2cc(-c3cc(N4CCCCC4)ncn3)c3cc[nH]c3n2)nc1	+
CC(C)C(=O)N(Cc1ccco1)S(=O)(=O)c1ccc2c(c1)n(C)c(=O)n2C	i
CN1C(=O)c2cc(C(=O)Nc3cccc(F)c3)nn2CC1(C)C(=O)NC1CCCCCC1 (centres undefined)	i
CC(=O)O[C@@H]1CC2C(/C=C(\C)C(=O)[C@@]3(O)C[C@@H](C)[C@H](OC(=O)c4ccccc4)C3/C=C/1C)C2(C)C (some centres undefined)	i
Cc1ccc(CNC(=O)C2(C)Cn3cnc(C(=O)N4CCN(c5ccccc5)CC4)c3C(=O)N2C2CC2)cc1 (centres undefined)	i
O=C(O)c1cc(I)ccc1NC(=O)[C@H](Cc1ccccc1)NCc1ccccc1	i
Cc1cc(C)cc(N2CCC(N)C2=O)c1 (centres undefined)	i
CN1C(=O)c2cc(C(=O)NC3CCCCCC3)nn2CC1(C)C(=O)NCc1ccc(F)cc1 (centres undefined)	i
CC1(C)CC=C(C#Cc2ccccc2)c2cc(/C=C/c3ccc(C(=O)O)cc3)ccc21	?
CCc1c(C(=O)N2CCc3c(c(C(=O)O)nn3CC3CC3)C2)csc1C	i
CC(=O)N1CCCC(c2nn(-c3cccc(Cl)c3)c(=O)[nH]2)C1 (centres undefined)	i
COc1ccc(N2C(=O)c3c(NC(C)=O)c4cc(F)ccc4n3CC2(C)C(=O)NC2CCCC2)cc1 (centres undefined)	i
O=C(c1ccccc1)N1CC2(CCCN2Cc2cccnc2)Cc2ccccc21 (centres undefined)	i
O=C(c1c(OCC2CC2)cc(=O)n2c1CCOCC2)N1CCc2ccccc2C1	i
COc1c(C)c(OCC=C(C)C)cc2c1CNC2=O	i
O=C1CC2(CCN(C(=O)C3CCN(C(=O)c4ccccc4F)CC3)CC2)Oc2ccccc2N1	i
CC1(C(=O)NC2CCCCCC2)Cn2c(ccc2-c2ccco2)C(=O)N1Cc1ccccc1 (centres undefined)	i
Cc1nc2cc(S(=O)(=O)N3CCOCC3)ccc2n1CCNC(=O)C1CC1	i
Cc1cc(C)cc(NC(=O)CCc2nnc3n(Cc4ccc(Cl)cc4)c(=O)c4ccccc4n23)c1	i
Cc1ccc(-c2ccnc(N(C)CC3CC(=O)N(C(C)(C)C)C3)n2)c(C)n1 (centres undefined)	i

Following part.
SMILES	Methyltransferases
O=C(CC1CCCCC1)NCc1nnc2cc(-c3nc(C4CC4)no3)ccn12	i
COc1cc2c(cc1O)C1(Cc3ccc4c(c3C1=O)OCO4)N(C)CC2 (centres undefined)	i
CC(C)n1c(=O)c2ccc(C(=O)NC3CCCC3)cc2n2c(=O)n(CC(=O)c3ccccc3)nc12	i
O=C(c1cccs1)N1CCc2[nH]nc(-c3cccc(F)c3)c2C1	i
CCc1ccc(CN2C(=O)c3cc(-c4ccccc4)nn3CC2(C)C(=O)NCCCOC)cc1 (centres undefined)	i
CC1=C(C(=O)Nc2cc3cn[nH]c3cc2F)C(c2ccc(Cl)cc2F)N=C(c2ccnc(Cl)c2)N1 (centres undefined)	i
